BJeLR viability = BJeLR cell viability loss. BJeLR (HRASV12) viability, CellTiter-Glo ATP luminescence, 48 h; reference of the scale not given here. inhibition, % (no concentration beside the values). 300,000 tested, 0.17% active. AID 1554;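 active = replicate mean above 50%; inconclusive = above 50% but judged a plate artefact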;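 note: 50 nL library stock added to about 25 µL; numbers are from one replicate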
Mtb hypoxia rep = reduces hypoxia-regulated biosensor signal in M. tuberculosis | M. tuberculosis hypoxia-regulated fluorescent reporter, fluorescence | fluorescence inhibition, % (concentration not given with the values) | 300,000 tested, 0.1% active;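 active = 35 to 45% if threefold the growth effect, above 45% if 1.5-fold the growth effect; inactive = the rest, general growth blockers included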;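 note: wells of about 50 µL received 100 nL stock; 0% = vehicle wells and 100% = reference inhibitor wells; whole bacteria with a GFP reporter of the hypoxia response; strong numbers were not always called active; many hits fall short of the cut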
Sa RN4220 lethal = kills Staphylococcus aureus RN4220; 330,000 tested, 0.33% active; inhibition, % (no concentration beside the values); S. aureus RN4220 growth, OD600, 16 h;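 active = z-score of -3 or lower and OD600 up to 0.18 on both plates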;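 note: plate controls were untreated cells for no effect and reference antibiotic for full effect; stock transfer was 100 nL into about 80 µL; one replicate is shown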
PrP UTR inh = inhibition of PrP 5' UTR reporter expression; AID 488862; inhibition, % (concentration not given with the values); cell-based PrP 5' UTR mRNA reporter, plate reader; 340,000 tested, 0.35% active;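 active = every replicate at 50% or more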;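 note: 0 = median of the neutral control wells; tested in H4 reporter cells; numbers are from one replicate; inactives centre near -14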
Autofluor counter = counter-screen for toxin protease inhibitors: compound fluorescence | fluorescence intensity (concentration not given with the values) | 360,000 tested, 3.1% active | compound autofluorescence counterscreen, microsphere flow cytometry; stronger effect = higher value;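 active = at least 3 SD above the mean of all compounds, about 16000 in these data; inconclusive = too few beads counted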;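 note: 100 nL of 1 mM stock went into each well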
Sa ugtP lethal = compounds lethal to S. aureus RN4220 ugtP deletion mutant; 330,000 tested, 0.54% active; growth inhibition, % (concentration not given with the values); AID 1259309; OD600 growth, 16 h; some inactives read as strong as hits;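 active = z-score under -3 and OD600 up to 0.15 on both plates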;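 note: plate controls were untreated wells for no effect and antibiotic for full effect; wells of about 80 µL received 100 nL stock; the first replicate is given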
Mtb hypoxia rep growth = also measured in Mtb hypoxia rep; calls as there; growth inhibition, %; measured here: M. tuberculosis growth (absorbance);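 0% = vehicle and 100% = reference antibiotic; read after six days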
* hit, by the source's call.

COC(=O)CNC(=O)C1Nc2ccccc2C2C=CCC12 (configuration not stated) was read as BJeLR viability -2, Mtb hypoxia rep -3, Sa RN4220 lethal 7.7, PrP UTR inh -17, Autofluor counter 2798, Sa ugtP lethal -5 and Mtb hypoxia rep growth 1.
`COCc1nnc(NC(=O)c2ccc(NC(=O)C(C)C)cc2)s1` gave BJeLR viability -7, Mtb hypoxia rep 5, Sa RN4220 lethal 0.2, PrP UTR inh -22, Autofluor counter 23228*, Sa ugtP lethal -3 and Mtb hypoxia rep growth 2.
`Cc1cccc(NC(=O)COC(=O)Cc2cccs2)c1C` gave BJeLR viability 3, Mtb hypoxia rep 7, Sa RN4220 lethal 2.5, PrP UTR inh -29, Autofluor counter 6041, Sa ugtP lethal 1 and Mtb hypoxia rep growth 6.
`Cc1ccc2c(CSc3nc4ccccc4c(=O)n3CCCO)cc(=O)oc2c1` gave Mtb hypoxia rep 11, Sa RN4220 lethal 3.1, PrP UTR inh -24, Autofluor counter 4140, Sa ugtP lethal 2 and Mtb hypoxia rep growth 24.
Screening Brc1ccc(-c2ccc(/C=N/Nc3nncc(-c4ccccc4)n3)o2)cc1 returned BJeLR viability 15, PrP UTR inh -20 and Autofluor counter 3536.
For CCCc1cc(=O)oc2c(CN3CCCC3)c(O)c(Cl)cc12 the results were BJeLR viability -5, Mtb hypoxia rep -8, Sa RN4220 lethal 0.3, PrP UTR inh -13, Autofluor counter 6139, Sa ugtP lethal -1 and Mtb hypoxia rep growth 8.
`COc1cc(C(C)=O)ccc1OCC(=O)NCC1(N2CCCCC2)CCCCC1` gave BJeLR viability 2, Mtb hypoxia rep 14, Sa RN4220 lethal 6.1, PrP UTR inh -30, Autofluor counter 5549, Sa ugtP lethal 9 and Mtb hypoxia rep growth 0.
For CC1CCCN(C(=O)C2CCC(CNc3c(N4CCCCC4)c(=O)c3=O)CC2)C1 (configuration not stated) the results were BJeLR viability 4, Sa RN4220 lethal -1.3, PrP UTR inh -17, Autofluor counter 4721 and Sa ugtP lethal -1.
`Nc1nc(CSc2nnnn2-c2ccc(F)c(Cl)c2)nc(N2CCOCC2)n1` gave BJeLR viability 12, Sa RN4220 lethal 2.2, PrP UTR inh 6, Autofluor counter 2953 and Sa ugtP lethal 0.
Screening COC(=O)C(COC(=O)c1c(F)cccc1F)NC(=O)c1c(F)cccc1F (configuration not stated) returned BJeLR viability 5, Mtb hypoxia rep 12, Sa RN4220 lethal 2.0, PrP UTR inh -10, Autofluor counter 3454, Sa ugtP lethal 0 and Mtb hypoxia rep growth 4.
`CCOC(=O)Cc1c(C)nc2c(-c3ccccc3)c[nH]n2c1=O` gave BJeLR viability -3, Sa RN4220 lethal 11, PrP UTR inh -18, Autofluor counter 5089 and Sa ugtP lethal 11.
Screening CC(=O)Nc1ccc(S(=O)(=O)Oc2ccccc2N2CCCCC2)cc1 returned BJeLR viability 2, PrP UTR inh -6 and Autofluor counter 8687.
COc1nc(NC(=O)c2ccc(F)cc2)nc(OC)c1-c1ccccc1 was read as BJeLR viability 2, Mtb hypoxia rep 11, Sa RN4220 lethal -0.1, PrP UTR inh -15, Autofluor counter 3738, Sa ugtP lethal 3 and Mtb hypoxia rep growth 2.
For CCOC(=O)CSc1nc(N2CCOCC2)c2c(c1C#N)CC(C(C)C)OC2 (configuration not stated) the results were BJeLR viability -2, Mtb hypoxia rep 7, Sa RN4220 lethal 0.9, PrP UTR inh -15, Autofluor counter 3802, Sa ugtP lethal 24 and Mtb hypoxia rep growth 6.
For CC(=O)Nc1ccc(C(=O)Nc2cccc(S(=O)(=O)N(C)c3ccccc3)c2)cc1 the results were Mtb hypoxia rep -4, Sa RN4220 lethal 3.7, PrP UTR inh -4, Autofluor counter 3408, Sa ugtP lethal -7 and Mtb hypoxia rep growth 5.
Screening O=C(C[C@@H]1C/C=C\C[C@@H](Cc2ccc(F)cc2)C(=O)OC[C@H]2CCCN2C1=O)N[C@H](CO)Cc1ccccc1 returned Mtb hypoxia rep -5, Sa RN4220 lethal 3.9, PrP UTR inh -9, Autofluor counter 3065, Sa ugtP lethal 2 and Mtb hypoxia rep growth -1.
COc1ccc(Cc2nnc(NN=Cc3ccccc3O)[nH]c2=O)cc1OC was read as Mtb hypoxia rep 6, Sa RN4220 lethal 7.0, Sa ugtP lethal 6 and Mtb hypoxia rep growth 4.
`O=C(O)c1cc(N/N=C/c2cccnc2)ccc1Cl` gave BJeLR viability -8, PrP UTR inh -68 and Autofluor counter 3812.
C/C(=N\NC(=O)c1cc(Cl)ccc1O)c1ccc(Br)s1 was read as BJeLR viability 1, PrP UTR inh -73 and Autofluor counter 2302.
Cc1cc(=O)nc2c3ccccc3n(C(C)C(=O)Nc3c(F)c(F)c(F)c(F)c3F)n12 (configuration not stated) was read as BJeLR viability 2, Mtb hypoxia rep 12, Sa RN4220 lethal 0.6, PrP UTR inh -26, Autofluor counter 4386, Sa ugtP lethal -73 and Mtb hypoxia rep growth -2.

Structural class, those above with bromine.
Screening Brc1ccc(-c2ccc(/C=N/Nc3nncc(-c4ccccc4)n3)o2)cc1 returned BJeLR viability 15, PrP UTR inh -20 and Autofluor counter 3536.
C/C(=N\NC(=O)c1cc(Cl)ccc1O)c1ccc(Br)s1 was read as BJeLR viability 1, PrP UTR inh -73 and Autofluor counter 2302.

Returning to the listing, repeating the 3 entries before the break.
`O=C(O)c1cc(N/N=C/c2cccnc2)ccc1Cl` gave BJeLR viability -8, PrP UTR inh -68 and Autofluor counter 3812.
C/C(=N\NC(=O)c1cc(Cl)ccc1O)c1ccc(Br)s1 was read as BJeLR viability 1, PrP UTR inh -73 and Autofluor counter 2302.
Cc1cc(=O)nc2c3ccccc3n(C(C)C(=O)Nc3c(F)c(F)c(F)c(F)c3F)n12 (configuration not stated) was read as BJeLR viability 2, Mtb hypoxia rep 12, Sa RN4220 lethal 0.6, PrP UTR inh -26, Autofluor counter 4386, Sa ugtP lethal -73 and Mtb hypoxia rep growth -2.
Screening Cc1nn(-c2cccc(Cl)c2)c(Cl)c1/C=N/NC(=O)c1cccs1 returned BJeLR viability 13, PrP UTR inh -48 and Autofluor counter 2521.
Screening CC(=O)c1ccc(C(=O)N(C)C2CCCN(Cc3ccccc3F)C2)s1 (configuration not stated) returned BJeLR viability 10, PrP UTR inh 1 and Autofluor counter 6342.
Screening CN(CCC#N)C(=S)Nc1ccc(S(=O)(=O)N2CCOCC2)cc1 returned BJeLR viability 7, Mtb hypoxia rep 8, Sa RN4220 lethal 0.1, PrP UTR inh -28, Autofluor counter 4470, Sa ugtP lethal 8 and Mtb hypoxia rep growth 9.
`CCN(CC)CCCN1C(=O)CSC1c1ccc2c(c1)OCO2` (configuration not stated) gave BJeLR viability -3, Sa RN4220 lethal 2.1, PrP UTR inh -18, Autofluor counter 2515 and Sa ugtP lethal 3.
Screening Cc1cc(=O)oc2c3c(cc(OCC(=O)NCc4ccccc4)c12)OC(C)(C)CC3 returned BJeLR viability -1, Sa RN4220 lethal 2.8, PrP UTR inh 16, Autofluor counter 5438 and Sa ugtP lethal 3.
For CC1CN(C(C)CO)C(=O)c2cc(NC(=O)Nc3ccccc3)ccc2OC1CN(C)S(C)(=O)=O (configuration not stated) the results were Mtb hypoxia rep 10, Sa RN4220 lethal 7.3, Sa ugtP lethal 0 and Mtb hypoxia rep growth 7.
For COc1ccccc1N1CCN(C(=O)c2ccc(Cn3c(=O)[nH]c4ccsc4c3=O)cc2)CC1 the results were BJeLR viability -4, Mtb hypoxia rep -3, Sa RN4220 lethal 1.3, PrP UTR inh -1, Autofluor counter 3437, Sa ugtP lethal 3 and Mtb hypoxia rep growth 7.
`CSc1ncccc1C(=O)NCCc1ccc(Cl)cc1` gave BJeLR viability -7, Mtb hypoxia rep 15, Sa RN4220 lethal 8.7, PrP UTR inh -10, Autofluor counter 3418, Sa ugtP lethal 14 and Mtb hypoxia rep growth -1.
CC(=O)N1CCN(C(=O)CCNS(=O)(=O)c2ccc(Br)cc2)CC1 was read as Mtb hypoxia rep 10, Sa RN4220 lethal 5.7, PrP UTR inh -12, Autofluor counter inconclusive, Sa ugtP lethal 7 and Mtb hypoxia rep growth 8.
Screening CC(C)Oc1cccc(-c2cc(C(=O)N3CCN(S(C)(=O)=O)CC3)c3ccccc3n2)c1 returned BJeLR viability -8, Sa RN4220 lethal 4.1, PrP UTR inh -15, Autofluor counter 4497 and Sa ugtP lethal 7.
For Cc1ccnc(NC(=O)c2cccc(NC(=O)c3ccccc3C)c2)c1 the results were BJeLR viability 0, Mtb hypoxia rep 6, Sa RN4220 lethal 5.6, PrP UTR inh -5, Autofluor counter 3328, Sa ugtP lethal 2 and Mtb hypoxia rep growth 2.
For CCOC(=O)C1=C(COC(=O)CCOc2ccccc2)NC(=O)NC1C (configuration not stated) the results were Mtb hypoxia rep -3, Sa RN4220 lethal 5.1, PrP UTR inh -19, Autofluor counter 3687, Sa ugtP lethal -3 and Mtb hypoxia rep growth 5.
Screening CCCCNC(=O)C12CCC(C)(C(=O)C1Br)C2(C)C (configuration not stated) returned BJeLR viability -5, Mtb hypoxia rep 8, Sa RN4220 lethal 2.8, PrP UTR inh -2, Autofluor counter 1966, Sa ugtP lethal 1 and Mtb hypoxia rep growth 13.
Screening Cc1cc(NC(=O)CSCC(=O)OCc2nnc(-c3ccccc3)o2)no1 returned BJeLR viability -12, Mtb hypoxia rep -1, Sa RN4220 lethal -0.7, PrP UTR inh 4, Autofluor counter 4079, Sa ugtP lethal 4 and Mtb hypoxia rep growth 10.
CC(=O)c1ccc(NC(=O)C2CCN(S(=O)(=O)c3cccc4cccnc34)CC2)cc1 was read as BJeLR viability -6, Sa RN4220 lethal 3.1, PrP UTR inh -13, Autofluor counter 5360 and Sa ugtP lethal 12.
For C/C(CC(=O)Nc1ccc2c(c1)OCCO2)=N\NC(=O)COc1ccccc1C the results were BJeLR viability -7, PrP UTR inh 2 and Autofluor counter 2794.
For COc1cc(NC(=O)C2CCCCC2)c(OC)cc1NC(=O)c1ccccc1 the results were BJeLR viability 5, Mtb hypoxia rep 10, Sa RN4220 lethal 6.1, PrP UTR inh -12, Autofluor counter 3684, Sa ugtP lethal 7 and Mtb hypoxia rep growth 12.
Screening COc1ccccc1C(=O)C1CCCN(Cc2cn[nH]c2C2CCCCC2)C1 (configuration not stated) returned BJeLR viability -5, Mtb hypoxia rep 0, Sa RN4220 lethal 2.2, PrP UTR inh 4, Autofluor counter 2098, Sa ugtP lethal -2 and Mtb hypoxia rep growth 0.
Screening Cc1ccc(Cl)cc1N1CCN(C(=O)c2ccc(CS(=O)Cc3ccc(Cl)cc3)o2)CC1 (configuration not stated) returned BJeLR viability 4, Mtb hypoxia rep 6, Sa RN4220 lethal -8.0, PrP UTR inh -12, Autofluor counter 5041, Sa ugtP lethal 96* and Mtb hypoxia rep growth 14.
Screening CC(C(=O)N1CCN(c2ccc(Cl)cc2)CC1)c1ncc(C(F)(F)F)cc1Cl (configuration not stated) returned BJeLR viability 2, Mtb hypoxia rep -2, Sa RN4220 lethal 1.8, PrP UTR inh -18, Autofluor counter 16547*, Sa ugtP lethal -12 and Mtb hypoxia rep growth 2.
For CCOC(=O)C1CCCN(CC(=O)Nc2nccs2)C1 (configuration not stated) the results were BJeLR viability -4, Mtb hypoxia rep 14, Sa RN4220 lethal 1.0, PrP UTR inh -26, Autofluor counter 3760, Sa ugtP lethal 4 and Mtb hypoxia rep growth 10.
For CC(=O)c1c(C)n(CC(=O)NCc2ccco2)c2ccccc12 the results were BJeLR viability 9, Mtb hypoxia rep 14, Sa RN4220 lethal 0.8, PrP UTR inh 0, Autofluor counter 4309, Sa ugtP lethal 7 and Mtb hypoxia rep growth 7.
CN1CC(=O)N(CC(=O)NCc2ccc3c(c2)OCO3)C1=O was read as BJeLR viability 4, Mtb hypoxia rep -13, Sa RN4220 lethal -6.1, PrP UTR inh -8, Autofluor counter 3658, Sa ugtP lethal 1 and Mtb hypoxia rep growth -7.
